GALR2 agonist – agonists of human galanin receptor 2 (GALR2). O43603. GALR2-expressing cells, agonist activation read-out. 0.48% of 140,000 active. activation, %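 (tested at 5 µM)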. AID 803;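 active = above mean plus 3 SD of all compounds, about 5% in these data, not always enough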;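 also: 0% = vehicle buffer wells and 100% = reference agonist at full effect; tested in CHO reporter cells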
Target sequence (O43603 whole entry, looked up): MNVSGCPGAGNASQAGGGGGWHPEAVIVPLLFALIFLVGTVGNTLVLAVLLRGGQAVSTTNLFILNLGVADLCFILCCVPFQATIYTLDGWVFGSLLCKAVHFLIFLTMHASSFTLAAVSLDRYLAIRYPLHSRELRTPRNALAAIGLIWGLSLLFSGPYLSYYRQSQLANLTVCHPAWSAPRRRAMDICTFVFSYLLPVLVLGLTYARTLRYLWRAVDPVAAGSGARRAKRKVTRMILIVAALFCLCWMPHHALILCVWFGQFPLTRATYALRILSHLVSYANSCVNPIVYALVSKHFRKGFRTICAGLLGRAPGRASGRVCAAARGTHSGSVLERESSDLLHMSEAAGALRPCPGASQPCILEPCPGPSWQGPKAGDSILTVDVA
PKD1 kinase inh – blocks activity of human protein kinase D1 | PKD1 kinase fluorescence polarization assay | inhibition, %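 (about 10 µM by stock and volumes)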 | 0.056% of 200,000 active;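 active = inhibition of 50% or more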;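 also: controls were vehicle for no effect and a reference inhibitor for full effect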
HSV replic up – increases HSV replication in cells. HSV replication augmentation in cells, fold increase. maximum fold increase. 0.005% of 220,000 active;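 active = peak rise of 1.5-fold or more in the series; inconclusive = self-fluorescent or not available for retest; tested in PC3 cells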;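 also: first round at 10 µM; read as green reporter fluorescence; hits show the peak of a series up to 25 µM; 1 = signal of infected wells without compound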
RGS16-Gao HTS – RGS16-Galphao interaction regulator (human); O15492+P09471; bead-based flow cytometry RGS16-Galphao binding, fluorescence; actives lie on both sides; binding response (% of control), % at 10 µM; 0.38% of 220,000 active; AID 1441;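 active = below 25% or above 175%, edge rows of some plates excepted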;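 also: Galphao activated by GDP with aluminum fluoride before binding; 100% = wells without compound and 0% = beads without RGS; some results beyond the cut were filed as inactive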
Target sequence (O15492 whole entry, looked up): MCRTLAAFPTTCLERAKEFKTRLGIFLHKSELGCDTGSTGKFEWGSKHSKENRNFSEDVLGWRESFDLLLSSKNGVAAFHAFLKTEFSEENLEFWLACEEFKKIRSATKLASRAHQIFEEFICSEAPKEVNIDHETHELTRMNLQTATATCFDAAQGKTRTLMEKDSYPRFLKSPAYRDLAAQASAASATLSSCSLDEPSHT
Target sequence (P09471 whole entry, looked up): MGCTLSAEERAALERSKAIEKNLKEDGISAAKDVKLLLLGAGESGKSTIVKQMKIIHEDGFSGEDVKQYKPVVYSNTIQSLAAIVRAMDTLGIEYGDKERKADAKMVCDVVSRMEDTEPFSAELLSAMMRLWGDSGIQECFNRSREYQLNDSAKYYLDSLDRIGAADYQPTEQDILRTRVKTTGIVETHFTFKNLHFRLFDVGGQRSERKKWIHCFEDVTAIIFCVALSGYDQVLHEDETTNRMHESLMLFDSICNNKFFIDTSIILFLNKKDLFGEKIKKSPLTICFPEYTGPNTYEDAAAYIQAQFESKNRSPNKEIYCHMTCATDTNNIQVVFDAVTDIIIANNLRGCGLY
Insulin prom inh – TRM-6 insulin promoter activity inhibition | inhibition, % at 2 µM | AID 1273 | TRM-6 cells (human fetal islet line), insulin promoter-eGFP reporter, imaging; reporter expression induced with tamoxifen | 0.9% of 130,000 active;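 active = inhibition above the mean plus 3 SD, with well images judged a real hit on visual review, cut at about 60% in these data, passing the limit was not always enough; inconclusive = inhibition over the cutoff but images rejected on review; inactive = inhibition not above the cutoff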
Insulin prom inh cell count – also measured in Insulin prom inh; calls as there; normalized cell count, %; measured here: cell count, toxicity; reference of the scale not given here;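 cells exposed to compound for 48 h; stained nuclei by imaging scaled within each plate; lower means fewer cells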
HSV replic up primary fold – second read-out of HSV replic up, no call of its own (marks repeat the call); fold increase; compound at 10 µM; measured here: primary screen fold increase 10 uM; tested in PC3 cells;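 GFP signal in the first replicate; 1 = infected wells without compound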
The depositor's hits bear a star; i = inactive; ? = inconclusive; . = no result given.

SMILES	GALR2 agonist	PKD1 kinase inh	HSV replic up	HSV replic up primary fold	RGS16-Gao HTS	Insulin prom inh	Insulin prom inh cell count
Cc1ccc2c(c1)C(=O)C(=O)N2CCCOc1ccccc1C	.	-5	i	0.98	88	-15	104
CCc1cccc(CC)c1NC(=O)COn1nnc2ccc(C(F)(F)F)cc21	-1.9	1	i	1.1	110	-48	97
CCOC(=O)Cc1csc(NC(=O)CCN2C(=O)c3ccccc3C2=O)n1	-2.3	-4	i	1	111	.	.
Oc1ccc(Br)cc1/C=N/N1CCN(Cc2ccccc2)CC1	-2.4	-9	i	1.2	105	24	66
O=C1c2cccnc2C(O)N1Cc1cccs1 (stereo not drawn)	-0.1	-15	i	0.9	102	14	155
Cc1cccc2sc(NC(=O)[C@H](C)N3C(=O)C4CC=CCC4C3=O)nc12 (stereo partly drawn)	.	.	i	0.99	97	.	.
CC(C)(C)c1ccc(C2C3=C(CCCC3=O)NC3=C2C(=O)c2ccccc23)cc1 (stereo not drawn)	-1.5	0	i	0.63	94	.	.
Cc1cc2c(c(C)nn2-c2ccccc2)c(=O)o1	-2.7	8	i	0.88	108	.	.
COc1ccc(NC(=O)Nc2cccc(C(=O)N3CCOCC3)c2)cc1OC	-0.9	-4	i	0.86	102	-108	87
COc1ccc(C(=O)CSc2nc(C)cc(=O)[nH]2)cc1	-2.0	2	i	1.1	113	-4	128
N#CC1(C#N)C(c2ccccc2)OC23CCCCC2C1(C#N)C(=N)O3 (stereo not drawn)	0.3	-3	?	.	103	20	125
Cc1sc2nc(SCC(=O)NCc3ccco3)[nH]c(=O)c2c1C	-4.0	-12	i	0.92	74	0	145
Cc1cc(Oc2ccc(C(C)(C)C)cc2)nc(N2CCOCC2)n1	-2.6	0	i	0.89	34	-19	58
CN(C)c1ccc2c(c1)Sc1cc(N(C)C)ccc1N2C(=O)c1ccccc1	.	.	i	1.1	99	.	.
CC(NC(=O)c1ccc(S(=O)(=O)N(C)C)cc1)c1ccccc1 (stereo not drawn)	-0.1	6	i	1	101	-24	46
O=C(c1cc(=O)c2ccccc2o1)N1CCN(c2ccccc2)CC1	.	-7	i	1	112	-83	60
CCn1c(O)c(/C=N/n2cnnc2)sc1=S	-1.0	0	i	0.86	95	.	.
Cc1ccc(C(=O)CSc2nc3c([nH]2)c(=O)n(C)c(=O)n3C)cc1	.	-4	i	0.98	97	-9	181
CCOC(=O)CSc1n[nH]c(NC(=O)c2cccc(C(F)(F)F)c2)n1	-1.8	-6	i	1.3	114	-33	75
Cc1cc(Cc2ccc(N)c(C)c2)ccc1N	.	.	i	0.94	100	.	.

The closing 2 compounds of the part before lead into the next.
SMILES	GALR2 agonist	PKD1 kinase inh	HSV replic up	HSV replic up primary fold	RGS16-Gao HTS	Insulin prom inh	Insulin prom inh cell count
CCOC(=O)CSc1n[nH]c(NC(=O)c2cccc(C(F)(F)F)c2)n1	-1.8	-6	i	1.3	114	-33	75
Cc1cc(Cc2ccc(N)c(C)c2)ccc1N	.	.	i	0.94	100	.	.
CC(=O)c1cccc(NC(=O)COC(=O)[C@@H](NC(=O)OCc2ccccc2)C(C)C)c1	-1.1	-3	i	0.93	101	.	.
COc1ccccc1C(=O)Nc1ccc2c(c1)nc(CCNC(=O)c1ccccc1)n2C	.	.	i	0.62	102	.	.
CCOC(=O)C1=C(O)C(=O)N(c2ccc(S(N)(=O)=O)cc2)C1c1cccc([N+](=O)[O-])c1 (stereo not drawn)	.	.	i	1.2	96	.	.
O=C(O)CP(=O)(O)O	-1.8	2	i	0.93	103	36	98
O=C(Cc1ccc(Cl)cc1)Nc1ccccc1CO	-0.8	-4	i	0.96	100	-39	82
CCOC(=O)c1ccc(N2Cc3ccccc3C2)cc1O	-0.7	-16	i	0.88	104	-31	140
O=C(CN1CCC(n2nnc3cc(F)ccc32)CC1)NCCc1ccccc1	-1.9	-1	i	1.1	110	0	108
O=C(CSc1nc(O)cc(=O)[nH]1)N1c2ccccc2Sc2ccccc21	.	7	i	0.94	109	.	.
O=C(CCCn1c(=S)[nH]c2ccccc2c1=O)N1CCCCC1	-0.7	-5	i	0.83	52	28	49
CCOC(=O)C(C)Sc1ncnc2c1nnn2-c1ccc(F)cc1 (stereo not drawn)	-2.0	7	i	0.94	110	9	126
Cc1cc(C(=O)COC(=O)Cn2cnc3c2c(=O)n(C)c(=O)n3C)c(C)n1C	-0.6	-12	i	0.98	97	29	89
CC(=O)Nc1ccc2sccc2c1	.	-2	i	0.95	95	-56	80
O=c1[nH]nc(SCc2ccccc2Cl)n1-c1ccc2c(c1)OCCO2	.	.	i	1.1	98	.	.
COC(=O)c1c(N2C(=O)[C@H]3[C@@H](C2=O)[C@]2(C(=O)Nc4c(C)cccc42)N2CCC[C@@H]32)sc(C)c1C	-0.8	-5	i	0.85	101	-73	126
S=C(NCCc1ccccc1)N1CCN(Cc2ccccc2)CC1	0.1	-4	i	1.1	129	.	.
CCC(Sc1nnnn1-c1ccccc1)C(=O)Nc1nc2ccccc2s1 (stereo not drawn)	-1.0	4	i	0.96	99	-43	63
O=C(CN(Cc1ccco1)C(=O)c1cc(=O)[nH]c2ccccc12)Nc1ccccc1Br	-1.6	-3	i	0.95	99	-8	58
CCOC(=O)C1(Cc2ccccc2Cl)CCN(S(=O)(=O)N(C)C)CC1	.	1	i	0.94	103	.	.
CCN(CC)S(=O)(=O)c1ccc2[nH]cc(C(=O)NCCN3CCCCCC3)c(=O)c2c1	-0.8	-5	.	.	90	.	.
Cc1noc(C)c1C(=O)N1CCN(Cc2ccccc2)CC1	-1.1	-4	i	0.98	182	-33	81
CCOc1ccc(N2C(=O)CC(N(CCc3ccc(OC)c(OC)c3)C(=S)Nc3ccccc3)C2=O)cc1 (stereo not drawn)	0.3	0	i	0.64	102	.	.
O=C(Nc1cccc(Cl)c1)c1cc(F)cc2c1OCOC2	.	.	i	0.91	90	.	.
Cn1ncc(Br)c1C(=O)OCC(=O)Nc1nc(-c2ccccc2)cs1	-1.0	-8	i	0.86	106	9	114
COc1ccc(-c2cc(C(=O)Nc3nc4c(C)cccc4s3)c3ccccc3n2)cc1OC	-2.3	-11	i	0.9	105	21	150
Cc1ccc2c(Cl)c(C(=O)Nc3cc(C)on3)sc2c1	-1.5	-1	i	0.94	100	64	124
O=C(CCn1nc(-c2ccc(Cl)cc2)c2ccccc2c1=O)NCCN1CCOCC1	0.1	-7	i	1.1	103	-21	87
C/C(Cn1nnc2ccccc21)=N\OC(=O)c1cc(F)c(F)cc1Cl	.	-7	i	1.1	103	.	.
O=C(Nc1ccc(Oc2ncnc3cc(Cl)ccc23)nc1)c1ccc(F)cc1	.	.	i	0.96	104	.	.
CCN(CC)S(=O)(=O)c1cccc(NC(=O)c2ccc(C#N)cc2)c1	.	-4	i	0.96	107	-7	144
Cc1cc(-c2nnc(CCC(=O)N3CCN(Cc4cccnc4)CC3)o2)c(C)o1	.	2	i	1.6	102	.	.
COc1ccc(-c2csc(N3CCC(c4ccccc4)C3)n2)cc1 (stereo not drawn)	-2.4	-5	i	1.1	107	-7	145
Cc1cc(NC(=O)c2ccc3nc(-c4ccccc4)c(-c4ccccc4)nc3c2)no1	-2.6	2	i	0.76	78	-59	104
O=C(CSc1nc2c(c(=O)[nH]1)CN(Cc1ccc(F)cc1)CC2)Nc1ccc(F)cc1	0.5	-5	i	1.1	100	-6	183
Nc1nc(CCl)nc(Nc2cccc3ccccc23)n1	.	.	i	0.51	98	.	.
COc1ccc(-c2noc(-c3ccccc3F)n2)cc1	-2.3	-1	i	0.98	103	.	.
Cc1cccc(OCc2nnc(SCc3cc(=O)n4cc(Br)ccc4n3)o2)c1	.	.	i	0.94	61	.	.
Cc1nc(N2CCOCC2)nc(N2CCCC2)c1[N+](=O)[O-]	0.8	-1	.	.	76	-33	106
Cc1nn(-c2ccc(C(=O)O)cc2)c2c1C(=O)CC(C)(C)C2	.	.	i	0.85	84	.	.
CCC(Sc1nnnn1-c1ccccc1)C(=O)NC(C)c1ccccc1 (stereo not drawn)	-3.1	-9	i	1.2	96	-173	104
COc1ccc(C(=O)Nc2ccc3[nH]c(-c4cccc(OC)c4)cc(=O)c3c2)cc1	1.6	4	i	0.57	104	-95	17

An excerpt of the results above:
SMILES	GALR2 agonist	PKD1 kinase inh	HSV replic up	HSV replic up primary fold	RGS16-Gao HTS	Insulin prom inh	Insulin prom inh cell count
CCC(Sc1nnnn1-c1ccccc1)C(=O)Nc1nc2ccccc2s1 (stereo not drawn)	-1.0	4	i	0.96	99	-43	63
O=C(CN(Cc1ccco1)C(=O)c1cc(=O)[nH]c2ccccc12)Nc1ccccc1Br	-1.6	-3	i	0.95	99	-8	58
CCOC(=O)C1(Cc2ccccc2Cl)CCN(S(=O)(=O)N(C)C)CC1	.	1	i	0.94	103	.	.
CCN(CC)S(=O)(=O)c1ccc2[nH]cc(C(=O)NCCN3CCCCCC3)c(=O)c2c1	-0.8	-5	.	.	90	.	.
Cc1noc(C)c1C(=O)N1CCN(Cc2ccccc2)CC1	-1.1	-4	i	0.98	182	-33	81
CCOc1ccc(N2C(=O)CC(N(CCc3ccc(OC)c(OC)c3)C(=S)Nc3ccccc3)C2=O)cc1 (stereo not drawn)	0.3	0	i	0.64	102	.	.
O=C(Nc1cccc(Cl)c1)c1cc(F)cc2c1OCOC2	.	.	i	0.91	90	.	.
Cn1ncc(Br)c1C(=O)OCC(=O)Nc1nc(-c2ccccc2)cs1	-1.0	-8	i	0.86	106	9	114
COc1ccc(-c2cc(C(=O)Nc3nc4c(C)cccc4s3)c3ccccc3n2)cc1OC	-2.3	-11	i	0.9	105	21	150
Cc1ccc2c(Cl)c(C(=O)Nc3cc(C)on3)sc2c1	-1.5	-1	i	0.94	100	64	124
O=C(CCn1nc(-c2ccc(Cl)cc2)c2ccccc2c1=O)NCCN1CCOCC1	0.1	-7	i	1.1	103	-21	87
C/C(Cn1nnc2ccccc21)=N\OC(=O)c1cc(F)c(F)cc1Cl	.	-7	i	1.1	103	.	.
O=C(Nc1ccc(Oc2ncnc3cc(Cl)ccc23)nc1)c1ccc(F)cc1	.	.	i	0.96	104	.	.
CCN(CC)S(=O)(=O)c1cccc(NC(=O)c2ccc(C#N)cc2)c1	.	-4	i	0.96	107	-7	144
Cc1cc(-c2nnc(CCC(=O)N3CCN(Cc4cccnc4)CC3)o2)c(C)o1	.	2	i	1.6	102	.	.
COc1ccc(-c2csc(N3CCC(c4ccccc4)C3)n2)cc1 (stereo not drawn)	-2.4	-5	i	1.1	107	-7	145
Cc1cc(NC(=O)c2ccc3nc(-c4ccccc4)c(-c4ccccc4)nc3c2)no1	-2.6	2	i	0.76	78	-59	104
O=C(CSc1nc2c(c(=O)[nH]1)CN(Cc1ccc(F)cc1)CC2)Nc1ccc(F)cc1	0.5	-5	i	1.1	100	-6	183
Nc1nc(CCl)nc(Nc2cccc3ccccc23)n1	.	.	i	0.51	98	.	.
COc1ccc(-c2noc(-c3ccccc3F)n2)cc1	-2.3	-1	i	0.98	103	.	.
Cc1cccc(OCc2nnc(SCc3cc(=O)n4cc(Br)ccc4n3)o2)c1	.	.	i	0.94	61	.	.
Cc1nc(N2CCOCC2)nc(N2CCCC2)c1[N+](=O)[O-]	0.8	-1	.	.	76	-33	106

Remaining list, next part
SMILES	GALR2 agonist	PKD1 kinase inh	HSV replic up	HSV replic up primary fold	RGS16-Gao HTS	Insulin prom inh	Insulin prom inh cell count
CCCCN(C)C(=O)c1ccc(CS(=O)(=O)c2ccccc2C)o1	-1.6	-2	i	0.94	88	.	.
CSc1nc2ccccc2cc1/C=C(\C#N)c1cccc(Cl)c1	-0.8	-14	i	0.72	101	-18	136
Cc1cc(C(=O)N/N=C/c2cc(Br)ccc2OC(=O)c2ccccc2)n[nH]1	-0.8	-6	.	.	101	42	109
O=C(CCCCCN1C(=O)c2ccccc2C1=O)Nc1ccc(S(=O)(=O)N2CCCCC2)cc1	-1.3	-1	i	0.89	90	-33	38
O=C(CSc1ccc(-c2ccco2)nn1)N1CCCCCC1	.	4	i	1	100	.	.
O=C(O[C@@H]1OC2COC(=O)c3cc(O)c(O)c(O)c3-c3c(cc(O)c(O)c3O)C(=O)O[C@@H]([C@H]1O)[C@@H]2O)c1cc(O)c(O)c(O)c1	-1.6	5	i	0.82	23*	-5	53
O=C(Cc1cccs1)Nc1nnc(SCC(=O)N2CCCCC2)s1	-4.4	-1	i	0.92	168	-38	162
CCOC(=O)c1c(-c2ccccc2)oc2ccc(O)c(CN3CCN(C)CC3)c12	-2.0	6	i	0.59	116	-64	98
